Source: PubChem BioAssay (ICCB-Longwood Screening Facility, Harvard Medical School)
MenB inh: M. tuberculosis MenB inhibitors, primary screen, biochemical, absorbance; 1,4-dihydroxy-2-naphthoyl-CoA synthase (Mycobacterium tuberculosis (strain ATCC 25618 / …; MenB enzyme assay, absorbance read-out; some hits fall short of the stated cut; inhibition, %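 (about 12 µg/mL by stock and volumes)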; 0.43% of 100,000 active;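 active means mean of two replicates above 30%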;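 further: 0% = no compound and 100% = wells with inactive enzyme; the first replicate is given; strong numbers were not always called active; inactives centre near -10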
Mtb MbtI inh: MbtI salicylate synthase inhibitors, primary screen, biochemical, fluorescence intensity. 0.89% of 100,000 active. P9WFX0. purified MbtI enzyme, fluorescence intensity read-out. inhibition, %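 (about 17 µg/mL by stock and volumes)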;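 active means above 50% in both replicates, above 80% if mildly self-fluorescent; inactive means the rest, strongly fluorescent compounds included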;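 further: 0% = mean of negative and 100% = mean of positive controls; one replicate is shown; some compounds called inactive have numbers as strong as hits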
Target sequence (P9WFX0 whole entry, looked up): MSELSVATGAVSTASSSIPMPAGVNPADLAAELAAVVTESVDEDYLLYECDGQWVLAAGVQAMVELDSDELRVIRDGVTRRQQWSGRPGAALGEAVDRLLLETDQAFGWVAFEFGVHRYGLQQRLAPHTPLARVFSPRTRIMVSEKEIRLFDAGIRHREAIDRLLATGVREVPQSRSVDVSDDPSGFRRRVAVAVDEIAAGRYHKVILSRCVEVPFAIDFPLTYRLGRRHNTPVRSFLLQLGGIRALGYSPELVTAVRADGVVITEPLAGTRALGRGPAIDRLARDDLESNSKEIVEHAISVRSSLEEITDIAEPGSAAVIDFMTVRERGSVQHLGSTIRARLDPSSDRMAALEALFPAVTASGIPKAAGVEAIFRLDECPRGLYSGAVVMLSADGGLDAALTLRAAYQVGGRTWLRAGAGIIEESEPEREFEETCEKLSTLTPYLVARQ
PV pol inh: poliovirus RdRp elongation inhibitors, primary screen, biochemical, fluorescence polarization, total intensity; Genome polyprotein (Poliovirus type 1 (strain Mahoney)), P03300; % elongation, % (compound at 16.7 µg/mL); 0.66% of 150,000 active; poliovirus polymerase elongation; hits give low values; in the data active means % elongation below about 90%; further: some results filed as inactive read as strong as hits
Target sequence (P03300 1749-2209 limits assumed): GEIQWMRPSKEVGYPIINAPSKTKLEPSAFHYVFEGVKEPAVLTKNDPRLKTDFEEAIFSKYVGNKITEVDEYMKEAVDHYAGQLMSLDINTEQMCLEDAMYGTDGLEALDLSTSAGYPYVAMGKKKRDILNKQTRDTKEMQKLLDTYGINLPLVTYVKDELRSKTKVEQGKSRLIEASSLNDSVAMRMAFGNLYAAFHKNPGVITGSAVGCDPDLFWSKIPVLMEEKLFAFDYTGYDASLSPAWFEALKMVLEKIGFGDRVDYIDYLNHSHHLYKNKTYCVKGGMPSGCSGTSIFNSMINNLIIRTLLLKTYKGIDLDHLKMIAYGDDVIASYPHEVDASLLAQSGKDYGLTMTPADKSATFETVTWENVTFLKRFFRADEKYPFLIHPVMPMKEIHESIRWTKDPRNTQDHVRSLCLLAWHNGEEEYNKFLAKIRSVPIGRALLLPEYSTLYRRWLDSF
PV pol inh intensity: also measured in PV pol inh; calls as there; % elongation; measured here: total intensity read-out; formula for this scale not given here;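 total fluorescence in place of polarization; lower means less elongation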
* hit, by the source's call; i = inactive; · = no result given.

SMILES	MenB inh	Mtb MbtI inh	PV pol inh	PV pol inh intensity
CC(C)(C)c1cc(C(=O)NCc2ccc(C#N)cc2)n(Cc2ccccc2)n1	-36	-6	99	104
O=C(Nc1ccc(O)cc1)c1c(O)c2ccccc2[nH]c1=O	-14	·	118	122
C[N+]1(C)C[C@@H](O)C[C@H]1C(=O)[O-]	4	-6	101	104
O=C(NCc1nc2ccccc2n1Cc1ccccc1)c1ccco1	·	1	102	102
COc1ccc2[nH]c3c(c2c1)CCNC3C1CC=C(C)CC1 (configuration not stated)	-12	34	103	108
CC12C=CC(=O)C1(C)C(=O)C=C2 (configuration not stated)	7	6	100	105
O=C(CC1CCCC1)Nc1c(C(=O)Nc2ccccc2)oc2ccccc12	-12	4	101	101
O=S(=O)(Nc1ccc2ccccc2c1)c1cccs1	-13	·	103	95
CSCCC(=O)Nc1ccccc1I	5	-38	106	108
CCOc1cc(/C=N/NC(=O)c2ccc(CSc3nncn3C)cc2)ccc1OCC(=O)N1CCOCC1	-22	-2	103	104
COC(=O)CSc1nc(C)nc2c1oc1ccccc12	-10	·	100	100
CCOC(=O)c1c(C)oc2c1c1c(c3ccccc32)OCN(C2CCCC2)C1	-14	3	101	108
Cc1nc2c(c(C)nn2C)c(C)c1CCC(=O)N1CCC(C)CC1	-4	32	99	101
CSc1nc2ccccc2n1CN(C)Cc1ccccc1	4	-7	101	106
COc1ccc(S(=O)(=O)N2CCN(C(=O)C(C)Oc3ccc(F)cc3)CC2)cc1 (configuration not stated)	-20	-1	103	105

Only PV pol inh intensity, PV pol inh and MenB inh (3 entries from above):
Structure,PV pol inh intensity,PV pol inh,MenB inh
O=S(=O)(Nc1ccc2ccccc2c1)c1cccs1,95,103,-13
CSCCC(=O)Nc1ccccc1I,108,106,5
CCOc1cc(/C=N/NC(=O)c2ccc(CSc3nncn3C)cc2)ccc1OCC(=O)N1CCOCC1,104,103,-22

(further entries)
SMILES	MenB inh	Mtb MbtI inh	PV pol inh	PV pol inh intensity
FC(F)(F)c1ccccc1-c1ncc(-c2ccccc2)o1	-7	78	104	103
Cc1sc2c(c1C)C(=O)NC(c1cccc(O)c1)N2 (configuration not stated)	-79	3	100	107
COc1cc2cc(C(=O)c3ccccc3O)cnc2cc1OC	-13	2	95	97
CCc1ccc(-c2cc(C)no2)cc1S(=O)(=O)N1CCN(c2ccccc2OC)CC1	-10	-16	104	104
CCN(c1cccc(C)c1)S(=O)(=O)c1cc2c3c(c1)CCN3C(=O)CC2	-4	2	102	101
Cc1cc(Nc2cccc(C(F)(F)F)c2)nc2ccc(NC(=O)C3COc4ccccc4O3)cc12 (configuration not stated)	3	-216	102	104
CC(C(=O)Nc1ccc(S(N)(=O)=O)cc1)N1C(=O)C2C3C=CC(C3)C2C1=O (configuration not stated)	5	-7	100	101
CCc1ccc(N2CCN(C(=O)c3ccc4c(c3)OCO4)CC2)cc1	-13	4	99	103
COc1ccc(CN(C(C)=O)c2ccccc2C(=O)O)cc1	8	-2	98	101
Cc1nn(Cc2ccccc2Cl)c(Cl)c1C(=O)OC1CCOC1=O (configuration not stated)	12	9	104	99
Cc1ccn2cc(-c3ccc(F)cc3)nc2c1	·	96	101	102
N#Cc1ccc(OCC(=O)NCCCc2ccccc2)cc1	·	-14	102	102
Cc1cccc(N2CCN(CCNC(=O)c3ccc4nc(N5CCOCC5)sc4c3)CC2)c1C	-87	-10	103	97
COc1ccc2c(c1)C1C=CCC1C(c1cc3c(cc1Br)OCO3)N2 (configuration not stated)	1	·	106	108
CCN1C(=O)N/C(=C/c2ccc(Sc3ccc(C)cc3)o2)C1=O	-22	78	97	104
Cc1nn(-c2ccccc2)nc1CNC(=O)c1cc(F)cc2c1OCOC2	-9	-6	103	108
CN1CCN(C(=O)c2ccc(C3SCC(=O)N3Cc3ccco3)cc2)CC1 (configuration not stated)	-2	-1	101	103
COc1ccccc1N(C(=O)CN1C(=O)C2C3C=CC(C3)C2C1=O)C1=NCCCS1 (configuration not stated)	-10	-2	103	105
C=C1c2cc(CC)ccc2NC(=O)N1c1ccccc1	-3	i	102	103
COc1ccccc1C1CC(C(F)(F)F)n2ncc(C(=O)O)c2N1 (configuration not stated)	7	-6	100	102
CCc1ccc2ncc(S(=O)(=O)c3ccccc3)c(N3CCOCC3)c2c1	-2	-1	99	101
Cc1ccc(-c2cc3nc(-c4ccccc4)cc(N)n3n2)cc1	-11	·	104	113
c1nc(SCc2ccon2)c2c3c(sc2n1)CCC3	8	44	104	107
O=C(NN1CCOCC1)c1cccc(COc2cccc(Br)c2)c1	-31	12	102	90
CC(C)Oc1ccc(CNC(=O)CCS(=O)(=O)c2ccc3c(c2)CC(=O)N3C)cc1	-24	-3	99	101
CSc1nnc(CCN)n1C	-33	-6	106	99
Fc1ccc(CSc2nnc(SCc3ccccc3)s2)cc1	1	·	103	104
C/C(Cn1c(=O)oc2ccccc21)=N\OC(=O)Nc1ccccc1	-12	9	102	96
CC(C)(C)C(N)=O	-7	-3	110	108
CCNc1nc(-c2ccc(Br)cc2)cs1	5	28	100	102
c1cnc2nc(-c3ccc4c(c3)OCCO4)cn2c1	-17	-69	101	109
O=C(COc1ccc(Br)cc1)NCCCN1CCCC1=O	-7	-9	101	106
O=C(Nc1ccc2[nH]ccc2c1)c1ccc(F)cc1	2	0	108	103
O=C(NCCCN1CCCC1)c1csc2c1CCCC2	-1	-4	104	103
Brc1cc2c(cc1CSc1nc3ncccc3[nH]1)OCO2	-22	3	103	103
CC(C)(C)n1nc(-c2ccc(Cl)cc2)c(C#N)c1N	-24	·	104	106
CCOc1ccc(C(=O)NC2CC2)c(OCC)c1	5	19	100	103
O=C1/C(=C/c2cccc3c2OCO3)CCC/C1=C\c1cccc2c1OCO2	1	·	112	123
c1ccn(-c2ccc(N3CCOCC3)cc2)c1	-6	7	101	103
Cc1noc(C)c1CSCC(=O)OCc1nnc(-c2ccccc2Br)o1	-12	-2	103	96
O=C(NCC1COc2ccccc2O1)C12CC3CC(CC(O)(C3)C1)C2 (configuration not stated)	-11	3	·	·
Cc1ccc(-c2nn(-c3ccccc3)cc2CSC(=N)N)cc1	·	-4	100	102
O=C(CC12CC3CC(CC(Br)(C3)C1)C2)NCC1CCCO1 (configuration not stated)	·	-5	101	101
CCC(Oc1ccccc1Cl)C(=O)O (configuration not stated)	-42	-5	106	102
CCSc1nnc2n(-c3ccccc3)c3ccccc3n12	-26	0	101	94
CCn1c(C)c(C)c2cc(C(=O)NC3CCCC3)ccc21	0	-15	102	105
CCc1ccc2c(CN3CC(C)OC(C)C3)cc(=O)oc2c1 (configuration not stated)	-15	2	101	93
CC(C(=O)NC1CCCc2ccccc21)N1CCN(c2ccc(F)cc2)CC1 (configuration not stated)	8	3	100	103
CCN(CC)C(=O)Nc1ccc(OC)cc1	-2	-10	100	106
CC1CCCN(c2nnc(NC(=O)NCc3ccccc3)s2)C1 (configuration not stated)	21	-8	102	103
COc1cccc(Oc2ccc(C(F)(F)F)cc2NC(=O)CSCC(=O)Nc2cc(C)on2)c1	-20	-5	103	109
COc1ccc(OCC(O)CNC(=O)c2ccccc2C(=O)O)cc1 (configuration not stated)	-4	10	100	103
CC(C)(C)NC(=O)Nc1ccc(Cl)cc1	-3	-4	100	105
COc1ccc(C(=O)N/C(=C\c2ccccc2)C(=O)NCc2ccco2)cc1	-5	-38	98	103
CCN(CC)c1ccc(NC(=S)NC(C)C)cc1	-10	29	100	103
CC(=O)N1CCc2cc(S(=O)(=O)NCCC(=O)Nc3nc4ccc(C)cc4s3)ccc21	-29	-1	101	101
Cc1nn(Cc2ccc(Cl)cc2)c(C)c1S(=O)(=O)N(C)C	8	0	100	104
COc1cc2[nH]c(=S)nc(NCc3cccnc3)c2cc1OC	-26	15	102	100
CC(=O)N1Cc2ccccc2CC1C(=O)NCc1ccc2c(c1)OCO2 (configuration not stated)	-8	-16	103	109
CC(NC(=O)c1cc2c(s1)CS(=O)(=O)C2)c1ccccc1 (configuration not stated)	1	7	99	105

Continuation:
SMILES	MenB inh	Mtb MbtI inh	PV pol inh	PV pol inh intensity
O=C1OCCC1Sc1cccc2cccnc12 (configuration not stated)	-2	·	107	111
Nc1ccc(Cc2nc3ccccc3[nH]2)cc1	1	-4	104	102
CC(C(N)=O)N1C(=O)c2cccc3cccc1c23 (configuration not stated)	-13	12	100	103
CN(CC(=O)Nc1ccc(Cl)cc1)CC(=O)Nc1ccc(C(N)=O)cc1	-30	-4	101	105
Oc1ccccc1C(C#Cc1ccccc1)N1CCOCC1 (configuration not stated)	-30	11	102	103
CCOc1ccc(N2CC(C(=O)OC(C)C(=O)c3ccccc3)CC2=O)cc1 (configuration not stated)	-21	-10	103	102
Cc1ccc2c(Sc3ccc(Cl)cc3)c(C(=O)NCCN3CCOCC3)[nH]c2c1	0	-1	104	106
CN(c1ccc(O)cc1)c1nc(-c2cccs2)cs1	-38	9	102	102
O=C(COC(=O)c1c(F)cccc1F)c1cccc(Cl)c1	·	-10	102	106
Cc1ccc(S(=O)C(F)(F)F)cc1 (configuration not stated)	·	0	104	101
Cn1c(Cn2cnc3ccccc32)nc2ccccc21	-11	4	104	106
CC(C(=O)NCC1(c2ccccc2)CCOCC1)N1CCCCC1 (configuration not stated)	-2	-4	103	102
CCc1ccc(C(=O)CSc2nnc(CN3CCCC3)n2Cc2ccccc2)s1	-4	6	103	101
O=C(CSc1nc2ccc(NC(=O)C3CCCCC3)cc2s1)NCC1CCCO1 (configuration not stated)	-2	·	104	110

Single records, as listed above.
Record of O=C(NCCCN1CCCC1)c1csc2c1CCCC2 → MenB inh = -1; Mtb MbtI inh = -4; PV pol inh = 104; PV pol inh intensity = 103
Record of CC1CCCN(c2nnc(NC(=O)NCc3ccccc3)s2)C1 (configuration not stated) → MenB inh = 21; Mtb MbtI inh = -8; PV pol inh = 102; PV pol inh intensity = 103

Among those listed so far, 7 have bromine.
SMILES	MenB inh	Mtb MbtI inh	PV pol inh	PV pol inh intensity
COc1ccc2c(c1)C1C=CCC1C(c1cc3c(cc1Br)OCO3)N2 (configuration not stated)	1	·	106	108
O=C(NN1CCOCC1)c1cccc(COc2cccc(Br)c2)c1	-31	12	102	90
CCNc1nc(-c2ccc(Br)cc2)cs1	5	28	100	102
O=C(COc1ccc(Br)cc1)NCCCN1CCCC1=O	-7	-9	101	106
Brc1cc2c(cc1CSc1nc3ncccc3[nH]1)OCO2	-22	3	103	103
Cc1noc(C)c1CSCC(=O)OCc1nnc(-c2ccccc2Br)o1	-12	-2	103	96
O=C(CC12CC3CC(CC(Br)(C3)C1)C2)NCC1CCCO1 (configuration not stated)	·	-5	101	101

The order is random; 1.7% or so of the library scored in one or more.
